Assay outcomes deposited in PubChem by SRMLSC.
H5N1 antiviral: antiviral screen in MDCK cells, H5N1 avian flu; cytopathic effect, luminescence, 72 h; stronger effect = higher value; no value below 0 was filed and about half of the inactive calls have no number; reference of the scale not given here; 0.07% of 96,000 active; inhibition, % at 50 µM; AID 740; in the data active means inhibition above about 25%
Starred values were filed as active, the others as inactive; i = inactive. Not all compounds are listed; count on the stated rates, not on these rows.

Start of the listing, in advance, 2 compounds:
SMILES	H5N1 antiviral
Cc1ccc(OCCNC(=O)c2ccco2)cc1C	i
O=C(NNC(=O)c1ccncc1)c1ccncc1	i

Main list, previewed entries included:
SMILES	H5N1 antiviral
Cc1ccc(OCCNC(=O)c2ccco2)cc1C	i
O=C(NNC(=O)c1ccncc1)c1ccncc1	i
CCS(=O)(=O)N1Cc2ccccc2CC1C(=O)OCC(=O)Nc1ccc(SC(F)F)cc1 (configuration not stated)	1.4
CCCCNC(=O)c1ccc(CS(=O)(=O)c2cccc(C(F)(F)F)c2)o1	1.4
CCC(C)NC(=O)C1CC(c2cccc(OC)c2)=NO1 (configuration not stated)	0.0
Nc1nc(N)nc(-c2ccccc2)n1	i
CCOc1ccc(C2Nc3ccc4ccccc4c3-c3c2c(=O)oc2ccccc32)cc1 (configuration not stated)	i
COC(=O)C1=C(C)OC(N)=C(C#N)C1C1CCCCC1 (configuration not stated)	0.7
COc1ccc(NC(=O)C2CCCN2C(=O)NC2CCCCC2)cc1OC (configuration not stated)	i
Cn1c(COc2ccc(Cl)cc2)nc2ccccc2c1=O	3.8
O=C(N/N=C/C=C/c1ccco1)c1cccnc1	8.3
COc1ccc(C2CC(C(F)(F)F)n3nc(C(=O)Nc4ccc5c(c4)OCO5)cc3N2)cc1 (configuration not stated)	i
O=C1C2C3C=CC(C3=C3CCCCC3)C2C(=O)N1c1ccccc1 (configuration not stated)	i
Cc1sc(NC(=O)c2ccco2)c(CN2CCN(c3ccccc3)CC2)c1C	i
Cc1ccc(NC(=O)c2nnn(CC(=O)Nc3ccccc3)c2N)cc1C	i
CCOC(=O)c1c(C)nc2ncccn12	i
Nc1nc(CSc2nc3ccccc3[nH]2)cs1	0.4
COn1cnnc1-c1ccccc1	1.1
O=C(c1ccccc1)c1nn(-c2ccccc2)c(=O)cc1C(F)(F)F	2.5
CC(C)c1nnc(NC(=O)CSc2nc3ccccc3s2)s1	i
Cc1ccc(N(Cc2cc(=O)[nH]c3ccccc23)C(=O)c2ccco2)cc1	0.8
O=C(NCC(c1ccco1)N1CCCC1)c1ccc(Cl)cc1 (configuration not stated)	i
c1ccc(COc2ccc(-c3csnn3)cc2)cc1	i
Cc1onc(-c2ccccc2)c1C(=O)NC(C)C	1.2
COc1ccc(-c2nnc(N3CCCCC3)c3ccccc23)cc1	i
CCCCc1ccc(CC(=O)O)cc1	i
COc1ccc(-c2cc(N)n(S(=O)(=O)Cc3ccccc3)n2)c(OC)c1	0.7
COc1ccc(OC)c(S(=O)(=O)N2CCCCC2C(=O)O)c1 (configuration not stated)	0.3
CCOc1ccc(S(=O)(=O)Nc2ccc(F)cc2)c(C)c1C	1.5
CCC(C)C(=O)Nc1cc(C(=O)OC)ccc1C(=O)OC (configuration not stated)	i
CCc1nc2ccc(F)cc2c(C(=O)NC2CCCCC2C)c1C (configuration not stated)	0.4
CCC(C)NC(=O)c1ccccc1C(=O)NC(C)CC (configuration not stated)	1.5
CN(C)/C=C/C(=O)c1ccc(N2CCN(c3ncc(C(F)(F)F)cc3Cl)CC2)cc1	i
Cc1cc(C)n(C(=O)CNC(=O)c2ccc3c(c2)OCCO3)n1	1.6
COc1ccccc1OCC(=O)N(Cc1nc(-c2ccccc2)no1)C1CCCCC1	i
CC(C)N(C)C1CCN(C(=O)Nc2ccc(Cl)cc2)CC1	i
CC1=C(C(=O)Nc2ccccc2C)C2(CCCC2)C(C(N)=O)C(=O)N1 (configuration not stated)	i
Cc1nnc(SCC(=O)NCC2CCCO2)n1-c1ccccc1 (configuration not stated)	i
CCOC(=O)N1CCC(c2[nH][nH]c(=O)c2C)CC1	0.8
COc1ccc(-c2[nH]ncc2-c2cnn(-c3ccccc3)c2)c(O)c1	i

4 of these compounds, set out differently.
smiles: CCC(C)NC(=O)c1ccccc1C(=O)NC(C)CC (configuration not stated)
  H5N1 antiviral: 1.5

smiles: CCc1nc2ccc(F)cc2c(C(=O)NC2CCCCC2C)c1C (configuration not stated)
  H5N1 antiviral: 0.4

smiles: CN(C)/C=C/C(=O)c1ccc(N2CCN(c3ncc(C(F)(F)F)cc3Cl)CC2)cc1
  H5N1 antiviral: i

smiles: Cc1cc(C)n(C(=O)CNC(=O)c2ccc3c(c2)OCCO3)n1
  H5N1 antiviral: 1.6

Additional structures follow:
SMILES	H5N1 antiviral
C=CCn1c(=O)[nH]c2cc(C(=O)N3CCN(c4cc(C)ccc4C)CC3)ccc2c1=O	i
Cc1ccc(C(=O)N2CCCC2)cc1S(=O)(=O)Nc1ccccc1	i
S=c1[nH]nc(CSCc2ccccc2Cl)n1-c1ccccc1	i
CCCc1cc(=O)[nH]c(SCC(=O)c2cc(C)n(C(C)COC)c2C)n1 (configuration not stated)	i
O=C(Nc1ccc(-c2cn3ccsc3n2)cc1)C1COc2ccccc2O1 (configuration not stated)	1.0
COc1cccc(OCc2nc3ccccc3[nH]2)c1	0.7
CC1=C(C#N)C(NC(=O)C(C)(C)C)(C(F)(F)F)C(=O)N1 (configuration not stated)	i
CCOC(=O)C1CCN(CC(=O)Nc2c(C(=O)OC)n(C)c3cccc(C)c23)CC1	0.1
COc1ccc(N(CC(=O)NCc2ccc3c(c2)OCO3)S(C)(=O)=O)cc1OC	i
N#Cc1ccc(Oc2cccnc2)cc1C#N	2.3
O=C(c1cccc(C(F)(F)F)c1)N1CCC(O)(CS(=O)(=O)Cc2ccccc2Cl)CC1	0.3
COC(C(=O)Nc1ccc(F)cc1F)c1ccccc1 (configuration not stated)	i
COC(=O)c1ccc(C(=O)OC)c(NC(=O)COC(=O)C2CC2C)c1 (configuration not stated)	1.0
CC(C)C(=O)Nc1ccccc1N1CCN(S(C)(=O)=O)CC1	0.8
CN1CCN(c2ncnc3c2cnn3-c2ccc(Cl)cc2)CC1	i
O=C(COc1ccc2c(C(F)(F)F)cc(=O)oc2c1)Nc1ccc2c(c1)OCCO2	i
O=C(C(Cc1ccccc1)N1C(=O)C2C3C=CC(C3)C2C1=O)N1CCCCCC1 (configuration not stated)	1.8
O=C(CSc1nnc(-c2ccccc2Cl)n1Cc1ccco1)Nc1ccc2c(c1)OCCO2	i
Cc1occc1C(=O)N1CCN(c2ccc(Cl)c(Cl)c2)CC1	i
COc1ccc(OCc2cccc(C(=O)O)c2)cc1	i
Cc1sc2ccccc2[n+]1CCC(C)S(=O)(=O)[O-] (configuration not stated)	1.4
O=C(Cn1c(=O)oc2ccccc21)Nc1ccc(S(=O)(=O)N2CCCCC2)cc1	i
CC(=O)N(CN1C(=O)c2ccc([N+](=O)[O-])cc2C1=O)c1ccc(F)cc1	0.5
O=C(c1ccc([N+](=O)[O-])cc1)N(Cc1ccc(Cl)cc1Cl)N1C(=O)CCCC1=O	i
Cc1cc(C)c(OCC(=O)Nc2nnn(C)n2)c(Br)c1	i
CCN(CC)C(=O)c1cc2cc(Br)ccc2oc1=O	i
Cc1nc(SCCC(C)C)c([N+](=O)[O-])[nH]1	0.1
O=[N+]([O-])c1ccccc1-c1ccc(/C=N/n2cnnc2)o1	0.4
COC(=O)c1ccccc1S(=O)(=O)N(Cc1cc2ccc(OC)cc2[nH]c1=O)CC1CCCO1 (configuration not stated)	i
CC(=O)c1cc(C#N)c(SCC(=O)OC(C)C)nc1C	0.4
CN(CC(=O)N1CCN(c2ccccn2)CC1)S(=O)(=O)c1ccc2ccccc2c1	i
CC1CCN(C(=O)CSCc2ccc(Cl)cc2)CC1	i
Cc1[nH]c2c(C(F)(F)F)cccc2c1CCN	i
CCOCC(=O)NCc1ccc2c(c1)OCO2	i
[O-]/[N+](=C\c1ccccc1)[C@@H]1CCCC[C@@H]1/[N+]([O-])=C/c1ccccc1	i
CCC(=NCc1ccco1)c1c(O)[nH]c(=O)[nH]c1=O	2.9
COc1ccc2nc(NC(=O)CCn3cccc3)sc2c1	0.3
CCc1sc(C(=O)Nc2cc(Cl)ccc2N2CCCCC2)cc1C	i
C/C(CC(=O)Nc1cc(Cl)ccc1Cl)=N\NC(N)=S	i
O=C(CN1CCN(S(=O)(=O)c2ccc(F)cc2)CC1)Nc1cccc(C(F)(F)F)c1	5.6
COc1ccc(Cl)cc1Nc1nc(NCCO)nc(N2CCCC2)n1	i
O=c1oc2cc(OCc3ccc([N+](=O)[O-])cc3)ccc2c2c1CCCC2	i
CC(=O)c1cnc(N2CCCCC2)nc1C	0.8
Nc1c(S(=O)(=O)c2cccs2)c2nc3ccccc3nc2n1/N=C/c1cccc(O)c1	i
Cc1ccnc(NC(=O)CCC(=O)N(CC(=O)NC2CCCCC2)c2cccc(C)c2C)c1	i
CCCCNC(=O)c1onc(CSc2cccc3ccccc23)c1C(=O)O	i
CCCCN(CCCC)c1nc2ccccc2nc1C(C#N)C(=O)NCCCOC (configuration not stated)	0.8
COc1cnc(SCc2ccc(Cl)c(Cl)c2)nc1Cl	i
CCCCCOC(=O)c1cc(=O)[nH]c2ccccc12	0.2
O=C(/C=C/c1ccccc1)NNC(=O)C1CC1	0.2
Later entries.
SMILES	H5N1 antiviral
COCCCn1c(SCC(=O)NC(C)(C)C)nnc1-c1ccccc1	i
CC(C)CC(=O)OCc1cn(-c2ccccc2)nn1	i
OC(c1ccc(Cl)cc1)C(O)c1nc2ccccc2[nH]1 (configuration not stated)	i
Cc1ccc2c(c1)[nH]c1c(=O)n(CCN3CCCCC3)cnc12	i
Cn1c(=O)c2c(ncn2CC(=O)N2CCOCC2)n(C)c1=O	i
O=C1C2C3CCC(C3NCc3ccccc3)C2C(=O)N1Cc1ccccc1 (configuration not stated)	i
Cc1ccc(S(=O)(=O)N2CCC(C(=O)N3CCC4(CC3)OCCO4)CC2)cc1	0.2
CNc1nc(-c2ccccc2)cc(C(F)(F)F)c1C#N	i
O=S(=O)(NCc1ccncc1)c1ccccc1	i
COc1ccc(C(=O)NC(Cc2ccccc2)c2ccc3c(c2)OCCCO3)cc1 (configuration not stated)	1.5
CN(c1ccccc1C(=O)O)S(C)(=O)=O	i
COc1ccc(Cn2nnnc2C(c2cc3ccc(OC)cc3[nH]c2=O)N2CCC(C)CC2)cc1 (configuration not stated)	i
CCn1c2ccccc2c2cc(NS(=O)(=O)c3ccc(C)cc3)ccc21	4.6
Cc1ccc2nc3c(cc2c1)c(NC(=O)C1CCCO1)nn3CC(C)C (configuration not stated)	i
Cc1cc(C(C)(C)C)ccc1OCCN1CCCC1	i
O=C(Nc1ccc(CN2CCOCC2)cc1)c1ccc(-c2cccc(Cl)c2)o1	i
O=C(NCCN1CCOCC1)c1ccc(-c2ccccc2)cc1	i
Cc1ccc(C(=O)COC(=O)CCC(=O)Nc2cc(Cl)ccc2Cl)cc1[N+](=O)[O-]	0.4
COc1cc(NC(=O)C2CCCCC2)c(OC)cc1NC(=O)CN1CCCCC1	0.2
Cc1nc2c3ccccc3nc(SCC(=O)N3CC(C)CC(C)C3)n2n1 (configuration not stated)	i
Cc1ccc(OCc2nnc(SCC(=O)Nc3ccc4c(c3)OCCO4)n2Cc2ccco2)cc1	i
Cc1c(NC(=O)CSc2nnc(COc3ccccc3)n2-c2ccccc2)c(=O)n(-c2ccccc2)n1C	i
COc1cc(C(=O)OCn2nnc3ccccc3c2=O)cc(OC)c1OC	0.0
COC(=O)c1sc2ccccc2c1-n1cccc1C(=O)C(=O)Nc1ccc(F)cc1	i
CCCCn1c(SCC(N)=O)nc2c(sc3ccccc32)c1=O	0.7
N#Cc1nc(COc2ccccc2)oc1N1CCN(Cc2ccccc2)CC1	0.1
CCOCCCNC(=O)Cc1cc(=O)[nH]c(=O)[nH]1	0.9
CSCCC(=O)N1C(C)CCCC1C(=O)O (configuration not stated)	i
Cn1c(=O)[nH]c(=O)c2c1nc(N1CCC(Cc3ccccc3)CC1)n2Cc1ccccc1	i
COCCNC(=O)C(c1ccc(C)o1)N(Cc1cccs1)C(=O)c1snc(C(N)=O)c1N (configuration not stated)	i
Cn1nc(Oc2nc(N3CCOCC3)nc(N3CCOCC3)n2)ccc1=O	0.1
CC(C(=O)c1c[nH]c2ccccc12)N1CCc2ccccc2C1 (configuration not stated)	i
COc1ccc(N=C(C)C2=C(O)CSC2=O)cc1	i
O=C(O)C=C1C2CC3CC(C2)CC1C3	i
CS(=O)(=O)N(Cc1ccco1)CC(O)Cn1cc(C=O)c2ccccc21 (configuration not stated)	1.1
CC1(C)CC(=O)C(N=Nc2cc(Cl)c(Cl)c(Cl)c2)=C(O)C1	0.1
CN1CCC(N2CCCC(C(=O)O)C2)CC1 (configuration not stated)	0.4
CCCc1cc(=O)n2[nH]c(C)c(-c3ccccc3)c2n1	1.8
CC(C)CC1C(C#N)=C(N)Oc2n[nH]c(-c3cccs3)c21 (configuration not stated)	0.3
CCCC(c1c(C)n(C)n(-c2ccccc2)c1=O)c1c(C)n(C)n(-c2ccccc2)c1=O	i

4 compounds picked at random from those above:
SMILES	H5N1 antiviral
Cn1nc(Oc2nc(N3CCOCC3)nc(N3CCOCC3)n2)ccc1=O	0.1
CN1CCC(N2CCCC(C(=O)O)C2)CC1 (configuration not stated)	0.4
CCCC(c1c(C)n(C)n(-c2ccccc2)c1=O)c1c(C)n(C)n(-c2ccccc2)c1=O	i
CC1(C)CC(=O)C(N=Nc2cc(Cl)c(Cl)c(Cl)c2)=C(O)C1	0.1

(next part)
SMILES	H5N1 antiviral
CC(=O)N1CCN(CCN=CC2=C(O)CC(c3cccs3)CC2=O)CC1 (configuration not stated)	1.3
O=[N+]([O-])c1ccc(CSc2nnc(-c3cnccn3)o2)cc1	2.6
O=S(=O)(CCSc1ccccn1)c1nc2ccccc2s1	3.7
O=c1cc(N2CCC(Cc3ccccc3)CC2)[nH]c(=O)n1C1CCCCC1	i
CCOCCCNC(=O)C1CCCCN1S(=O)(=O)c1ccc(F)cc1 (configuration not stated)	0.0
COc1ccc2c(CC(=O)OCC(=O)c3ccccc3OC)coc2c1	0.9
Cc1onc(-c2ccccc2Cl)c1C(=O)OCC(=O)c1ccc2c(c1)OCCO2	i
CNCCOCC(O)CSc1ccccc1 (configuration not stated)	1.0

Nothing new here: entries from further up.
SMILES	H5N1 antiviral
Cc1ccc(OCCNC(=O)c2ccco2)cc1C	i
O=C(NNC(=O)c1ccncc1)c1ccncc1	i
CCS(=O)(=O)N1Cc2ccccc2CC1C(=O)OCC(=O)Nc1ccc(SC(F)F)cc1 (configuration not stated)	1.4
CCCCNC(=O)c1ccc(CS(=O)(=O)c2cccc(C(F)(F)F)c2)o1	1.4
CCC(C)NC(=O)C1CC(c2cccc(OC)c2)=NO1 (configuration not stated)	0.0
Nc1nc(N)nc(-c2ccccc2)n1	i
